PINK1 expr mod = changes PINK1 expression. Potency, µM (titrated, usually from 76.6 µM), for the others: top-dose activation (PINK1 increase), usual class: activators. AID 624263. PINK1 immunofluorescence, high-content cytometry, 24 h. 410,000 compounds, 0.2% hits; active = well fitted activation curve with a large enough effect; inconclusive = small, poorly fitted or top-dose-only effect; inactive = flat fitted curve, though single readings scatter; cell line not stated here;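 further: potency means the concentration at half of the fitted maximal effect; % of control where 0% means no effect; nearly all actives have a fitted effect of over 65% in size; a mitochondrial uncoupler was the plate control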
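Compound titrations (5 concentrations, 24 h) on a stable cell line; DMSO and CCCP controls. Endpoint: fixed-cell PINK1 immunofluorescence with mitochondrial, cell and nuclear markers, scanned by microplate cytometer.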
Six1-Eya2 blk = inhibitors of human Six1/Eya2 interaction; Q15475+O00167; 360,000 compounds, 0.56% hits; AlphaScreen GST-Six1/His-Eya2 binding, biochemical; stronger effect = lower value; control for the full effect not named in the record; activity change, % (concentration not given with the values); in the data active = activity change below about -65%; inconclusive = about -30% to -65%; inactive = above about -30%; further: on the % scale 0 is the no-effect control and ±100 the full control effect
Target sequence (O00167 whole entry, looked up): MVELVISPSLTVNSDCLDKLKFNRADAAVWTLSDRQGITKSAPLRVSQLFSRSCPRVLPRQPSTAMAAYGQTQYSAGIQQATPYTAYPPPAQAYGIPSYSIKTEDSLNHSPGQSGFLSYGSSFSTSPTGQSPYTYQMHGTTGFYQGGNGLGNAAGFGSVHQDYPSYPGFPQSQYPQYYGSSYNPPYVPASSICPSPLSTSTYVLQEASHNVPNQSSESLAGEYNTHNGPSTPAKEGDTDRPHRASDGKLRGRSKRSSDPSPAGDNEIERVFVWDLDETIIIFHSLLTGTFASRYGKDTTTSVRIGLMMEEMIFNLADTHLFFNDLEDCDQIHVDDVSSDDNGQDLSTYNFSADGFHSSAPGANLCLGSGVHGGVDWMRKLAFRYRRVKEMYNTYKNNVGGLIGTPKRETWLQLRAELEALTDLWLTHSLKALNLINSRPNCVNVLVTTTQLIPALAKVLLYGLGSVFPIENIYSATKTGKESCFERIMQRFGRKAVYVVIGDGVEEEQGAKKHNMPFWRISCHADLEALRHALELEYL
Target sequence (Q15475 whole entry, looked up): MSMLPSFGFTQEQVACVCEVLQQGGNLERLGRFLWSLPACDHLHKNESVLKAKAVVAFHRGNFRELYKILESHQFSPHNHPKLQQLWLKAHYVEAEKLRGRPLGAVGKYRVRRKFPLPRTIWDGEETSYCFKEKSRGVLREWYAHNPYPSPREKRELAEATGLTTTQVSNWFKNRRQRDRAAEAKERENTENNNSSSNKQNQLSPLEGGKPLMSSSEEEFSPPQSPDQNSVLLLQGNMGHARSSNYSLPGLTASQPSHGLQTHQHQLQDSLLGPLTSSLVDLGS
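Homogeneous AlphaScreen proximity assay pairing GST-Six1 with His-tagged Eya2 (added as 5X mix: 250 nM and 500 nM) in 50 mM Tris pH 8.0, 300 mM NaCl, 1 mM TCEP. Glutathione donor and nickel acceptor beads; 1 h, 37 °C, dark.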
CtBP-E1A blk = blocks the CtBP interaction with E1A; 340,000 compounds, 0.49% hits; AlphaScreen GST-E1A/His-CtBP binding, 1536-well; stronger effect = lower value; control for the full effect not named in the record; activity change, % (no concentration beside the values); in the data active means activity change below about -65%; inconclusive means about -30% to -65%; inactive means above about -30%; further: on the % scale 0 is the no-effect control and ±100 the full control effect
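AlphaScreen with 125 nM GST-E1A and 125 nM His-CtBP (5X stocks) in Tris pH 8.0, 300 mM NaCl, BSA, Tween 20, TCEP. Compounds preincubated 2 h at 37 deg C, then glutathione donor/nickel acceptor beads added for 1 h at 37 deg C in dark.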
D2 agonist = human D2 receptor agonism in beta-arrestin assay; P14416; DiscoveRx PathHunter D2 beta-arrestin, luminescence, 90 min; 100% = 57 uM dopamine signal; activation, % (test concentration not listed); 360,000 compounds, 0.084% hits; AID 624465; in the data active = activation above about 40%; inconclusive = about 15% to 40%; inactive = below about 15%; further: compound concentration not given in the record; the text of the record calls up to 30% inactive
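Agonist mode: compounds alone added to overnight-plated D2 PathHunter cells for 90 min at 37 C, with 57 uM final dopamine (EC100) defining full response. Beta-arrestin recruitment detected by chemiluminescent reagent, read after 1 h at ambient temperature.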
TRPML1 agonist = activates the human TRPML1 channel. TRPML1-expressing cells, Ca2+ dye fluorescence, FDSS; host cell line not named in the record; reference of the full effect not given here. activation, % (concentration not given with the values). AID 624414. 410,000 compounds, 0.12% hits. Q9GZU1; in the data active = activation above about 50%; inconclusive = about 30% to 50%; inactive = below about 30%; further: 0% is about no effect; the text of the record puts the active cut at 80%
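Tetracycline-induced TRPML1-DL cells are seeded and incubated overnight before loading with a no-wash Ca2+ dye and quencher. Agonist activity is taken from the 110 s fluorescence read following compound pin-transfer on an FDSS, before EC80 54-4 challenge.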
TRPML1 inh = blocks the human TRPML1 channel; Q9GZU1; TRPML1-inducible cells, Ca2+ dye fluorescence, FDSS; stronger effect = lower value; inhibition of EC80 agonist-evoked calcium signal; activity change, negative = inhibition, % (no concentration beside the values); 390,000 compounds, 0.02% hits; in the data active means activity change below about -50%; inconclusive means about -30% to -50%; inactive means above about -30%;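 further: stimulus is agonist 54-4 at its EC80 concentration; on the % scale 0 is the no-effect control and ±100 the full control effect; compound concentration not given in the record; the text of the record puts the active cut at -80%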
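Calcium fluorescence in TRPML1-DL cells induced overnight with Tet: a 110 s read after compound pin addition, then a 110 s antagonist read after challenge with 54-4 at 4 uM final (EC80).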
Numbers without * were called inactive; u = inconclusive; x = not tested or not shown; [ ] = dose if it differs, or a comment.

SMILES | PINK1 expr mod | Six1-Eya2 blk | CtBP-E1A blk | D2 agonist | TRPML1 agonist | TRPML1 inh
CC(C)CN(C(=O)c1ccc(S(=O)(=O)N2CCCCC2)cc1)C1CCS(=O)(=O)C1 (stereo not given) | 2.2% | 6 | 12 | -2.0 | 0.4 | 5
O=C(Nc1ccc(Cl)cc1)c1sccc1-n1cccc1 | 1.1% | -2 | 0 | 0.6 | 1.5 | 22
Cc1ccc(NC2=CC(=O)OC(C)C2)cc1 (stereo not given) | -0.7% | 4 | 2 | -1.6 | 3.3 | 34
COc1ccccc1C(=O)Nc1ccc2c(c1)nc(CCNC(C)=O)n2C | -2.3%[38.3 µM] | 0 | 2 | 1.6 | -0.6 | 1
Cc1nc2ccccc2c2oc(C(=O)NC3CC3)cc12 | 0.7% | u | -13 | 0.9 | -0.3 | 18
Nc1nc(NCc2ccco2)nc(N2CCCCC2)c1[N+](=O)[O-] | 1.7% | 2 | 8 | 1.4 | 1.7 | -3
Cc1cc(C)cc(NC(=O)Cc2ccc(NC3=NC4CS(=O)(=O)CC4S3)cc2)c1 (stereo not given) | 0.0% | 3 | 0 | -0.3 | 0.2 | 2
CCC(CC)C(=O)NCCCN1CCOCC1 | 1.2% | 9 | 10 | 0.4 | 0.6 | 18
CCOC(=O)c1ccc(NC(=O)COCc2cc(-c3ccc4c(c3)OCO4)on2)cc1 | 4.9% | x | x | x | -0.1 | 0
CCn1c(C)nc2cc(C(=O)N/N=C(\C)c3ccc(OC)cc3O)ccc21 | -0.7% | -29 | -22 | 0.9 | -0.3 | 6
OCC1OC(n2cnc3c(N4CCCC4)ncnc32)C(O)C1O (stereo not given) | -1.2% | 3 | 5 | -2.2 | -0.2 | -1
CS(=O)(=O)c1ccc(Cl)c(NC(=O)C2CC(=O)N(c3ccc4c(c3)OCCO4)C2)c1 (stereo not given) | -1.4% | 0 | 3 | -0.9 | 0.5 | 25
CC(C(=O)Nc1ccc2[nH]c(=O)[nH]c2c1)N1CCN(Cc2ccc3c(c2)OCO3)CC1 (stereo not given) | 0.6% | -24 | x | -0.1 | -0.2 | 7
CCc1ccc2[nH]c(=O)c(CN(CCN(C)C)C(=O)Nc3ccccc3OC)cc2c1 | -1.1% | 2 | -8 | -2.9 | 0.3 | 6
CCOC(=O)c1cnn2c(C(F)F)cc(C3CC3)nc12 | -0.4% | -1 | 1 | -3.2 | -1.6 | 10
CCOC(=O)N1CCN(c2ccc(C(F)(F)F)cn2)CC1 | 2.5% | 16 | 10 | 0.7 | 0.4 | -11
Cc1[nH]c2ccc(Br)cc2c1CCNC(=O)c1cc2ccccc2oc1=O | 2.7% | x | x | x | 2.6 | -5
CCCCCn1c(N2CCCC2)nc2c1c(=O)n(C)c(=O)n2C | 1.9% | -11 | 0 | u | 0.1 | 6
CCOc1ccc(NC(=O)[C@H](Cc2ccccc2)N2Cc3ccccc3C2=O)cc1 | 3.6% | x | x | x | 2.6 | -8
O=C(CN1C(=O)NC2(CCc3ccccc32)C1=O)c1ccc(Cl)cc1 (stereo not given) | -3.0% | 2 | 3 | -0.2 | 0.2 | 0

Next section, starting with the last 5 of the part before.
SMILES | PINK1 expr mod | Six1-Eya2 blk | CtBP-E1A blk | D2 agonist | TRPML1 agonist | TRPML1 inh
CCOC(=O)N1CCN(c2ccc(C(F)(F)F)cn2)CC1 | 2.5% | 16 | 10 | 0.7 | 0.4 | -11
Cc1[nH]c2ccc(Br)cc2c1CCNC(=O)c1cc2ccccc2oc1=O | 2.7% | x | x | x | 2.6 | -5
CCCCCn1c(N2CCCC2)nc2c1c(=O)n(C)c(=O)n2C | 1.9% | -11 | 0 | u | 0.1 | 6
CCOc1ccc(NC(=O)[C@H](Cc2ccccc2)N2Cc3ccccc3C2=O)cc1 | 3.6% | x | x | x | 2.6 | -8
O=C(CN1C(=O)NC2(CCc3ccccc32)C1=O)c1ccc(Cl)cc1 (stereo not given) | -3.0% | 2 | 3 | -0.2 | 0.2 | 0
Cc1ccc(NC(=O)COC(=O)CN2C(=O)NC(C)(C)C2=O)cc1S(=O)(=O)N1CCOCC1 | 2.1% | 0 | 21 | -3.0 | -1.2 | -21
Cc1c(Cl)cccc1NC(=S)N1CCN(S(=O)(=O)c2cccs2)CC1 | -0.6% | 2 | 1 | 0.7 | 0.2 | -12
Cc1cccc(CCNC(=O)c2cc3ccccn3n2)c1 | 0.1% | x | x | x | -1.4 | -1
CCNC(=O)Nn1c(-c2ccccc2)nc2ccccc2c1=O | 2.6% | 6 | -3 | -0.2 | 0.3 | 13
O=C(Nc1ccccc1C(F)(F)F)c1ccc2oc(=O)c(S(=O)(=O)c3ccc(F)cc3)cc2c1 | 0.7% | x | x | x | -0.1 | 7
Cn1c(N)cc(-c2ccc(F)cc2)c(C#N)c1=O | 1.9% | -2 | 4 | -4.6 | -0.4 | -10
Cc1cc(C(=O)CCC(=O)N(C)CC(=O)Nc2ccccc2Br)c(C)s1 | -1.2% | -1 | -16 | -4.3 | -0.2 | 9
COc1cc(/C=N/NC(=O)c2cnccn2)ccc1O | -1.1% | 3 | -16 | -7.8 | 0.1 | -2
CC(C)(C)c1nn(-c2ccccc2)c2nc(Cl)c(C=O)cc12 | 0.2% | 19 | 2 | 2.7 | 1.1 | -9
CCCc1nc2c([nH]1)C(c1cccnc1)C(C#N)=C(N)O2 (stereo not given) | 0.7% | 6 | 1 | -2.0 | 2.3 | 36
N#C/C(=C\c1ccc(-c2nc3ccccc3s2)o1)C(N)=O | -4.0% | u | -20 | -0.7 | -0.3 | 9
COc1ccccc1NC(=O)CSc1nc(N)c(-c2ccccc2)c(=O)[nH]1 | 3.0% | -7 | -1 | -4.6 | -0.5 | -7
Cc1cc(C(=O)CSc2nc3ccc(Cl)cc3[nH]2)c(C)n1C | 12%[38.3 µM] | -12 | -13 | -0.2 | 0.3 | 1
Cc1ccc(C(=O)N2[C@@H]3CN(C)C(=O)[C@@]2(Cc2ccccc2)[C@H]2C(=O)N(C)C(=O)[C@@H]32)cc1 | 0.1% | 2 | 2 | 0.8 | -0.4 | 33
COc1cc(/C=C2/SC(=Nc3ccc(O)cc3)NC2=O)ccc1O | 1.4% | -25 | u | -2.9 | x | x
CCOc1ccc(/C=N/Nc2nncc(-c3ccccc3)n2)cc1OC | 5.2% | -4 | 9 | 1.4 | 0.2 | 7
C/C(=N\NC(=O)Cc1ccc(Br)cc1)c1cccnc1 | -1.3% | 1 | 2 | -0.2 | 2.1 | 9
Cc1cc(C)cc(NC(=O)C2CCC(CNC(=O)[C@@H]3Cc4ccccc4CN3)CC2)c1 (stereo not given in full) | 12% | 2 | x | 0.2 | -0.2 | -15
O=C(COC(=O)c1ccc(O)cc1)NCC1COc2ccccc2O1 (stereo not given) | -0.3% | 6 | -8 | 2.3 | 1.7 | -5
Cc1ccc(NC(=O)N/C=C/c2ccccc2)cc1 | 4.4% | -2 | 7 | -2.4 | -0.4 | 3

Reformatted as a markdown table: four of the compounds above.
| Molecule | PINK1 expr mod | Six1-Eya2 blk | CtBP-E1A blk | D2 agonist | TRPML1 agonist | TRPML1 inh |
| --- | --- | --- | --- | --- | --- | --- |
| Cc1ccc(NC(=O)COC(=O)CN2C(=O)NC(C)(C)C2=O)cc1S(=O)(=O)N1CCOCC1 | 2.1% | 0 | 21 | -3.0 | -1.2 | -21 |
| O=C(COC(=O)c1ccc(O)cc1)NCC1COc2ccccc2O1 (stereo not given) | -0.3% | 6 | -8 | 2.3 | 1.7 | -5 |
| Cn1c(N)cc(-c2ccc(F)cc2)c(C#N)c1=O | 1.9% | -2 | 4 | -4.6 | -0.4 | -10 |
| C/C(=N\NC(=O)Cc1ccc(Br)cc1)c1cccnc1 | -1.3% | 1 | 2 | -0.2 | 2.1 | 9 |

More structures:
SMILES | PINK1 expr mod | Six1-Eya2 blk | CtBP-E1A blk | D2 agonist | TRPML1 agonist | TRPML1 inh
COc1cc2c(cc1OC)[C@H](C)N(C(=S)Nc1ccc(F)cc1)CC2 | -0.8% | -3 | -4 | -1.4 | 0.6 | 32
CCOC(=O)[C@]12Cc3c(cc(OC)c(OC)c3OC)[C@H]1N(CCC(=O)OC)C(=O)c1cc(OC)ccc12 | -1.4% | 1 | -3 | x | -0.4 | x
O=C(O)C1C2C=CC(C3CC23)C1C(=O)O (stereo not given) | 3.0%[38.3 µM] | 3 | 8 | -0.2 | -0.5 | -15
CCN(CC)S(=O)(=O)c1ccc(/C(O)=C(\C#N)c2nc3ccccc3n2C)cc1 | x | 4 | -7 | -0.6 | 1.5 | 12
NC(=O)C1CCN(CC(=O)Nc2cc(S(=O)(=O)N3CCOCC3)ccc2N2CCCC2)CC1 | 0.5% | 0 | x | -4.7 | 0.0 | 22
COc1cccc(C2/C(=C(/O)c3ccc(C)cc3)C(=O)C(=O)N2Cc2ccco2)c1 (stereo not given) | 0.4% | -2 | 10 | -2.0 | 0.7 | -10
C=CCN1C(=O)c2ccc(C(=O)N3CCN(S(=O)(=O)c4cccc([N+](=O)[O-])c4)CC3)cc2C1=O | 0.7% | -1 | 5 | u | -0.8 | -7
O=C(O)c1cc([N+](=O)[O-])ccc1NCCO | -0.4% | 11 | 10 | -5.6 | -0.5 | 2
CC1CC(C)CN(C(=O)COC(=O)/C=C/c2ccco2)C1 (stereo not given) | -1.2% | -1 | 8 | 3.1 | 0.9 | 7
N=C1S/C(=C\c2ccco2)C(=O)N1c1nccs1 | 3.9% | -6 | x | -6.3 | 0.3 | 16
Cc1c(NC(=O)Cc2noc3ccccc23)cccc1[N+](=O)[O-] | 1.3% | 7 | -19 | -1.8 | 0.2 | -17
COC(=O)c1cc2c(C)c(C)c3ccccn3c-2c1C(=O)OC | 7.7% | u | u | 0.0 | 7.2 | 5
COc1ccc(S(=O)(=O)N2CCCCC2)cc1NC(=O)c1cccs1 | 4.8% | 6 | -9 | -0.6 | -0.2 | 36
COCCn1c(-c2ccc(OC)cc2)cnc1SCC(=O)Nc1cc(C)on1 | -0.6% | -8 | 0 | -3.3 | 0.3 | 26
Cc1ccc(-c2nc(S(=O)(=O)c3ccccc3)c(SCC(=O)NCC3CCCO3)o2)cc1 (stereo not given) | 3.3% | -2 | 4 | 3.9 | 0.6 | -13
O=C(CN1CCCCC1)NC(=O)Nc1ccccc1F | 3.3% | -5 | -1 | -2.6 | -0.2 | 4
CC(C)C[C@H](NC(=O)C1CCN(S(=O)(=O)c2ccccc2)CC1)C(=O)NCc1ccccn1 | -0.1% | 4 | 8 | -4.8 | -0.7 | 0
Cc1ccc(C)c(NC(=O)Cn2cc(C(=O)c3ccncc3)c(=O)c3cc(F)ccc32)c1 | 1.6% | x | x | x | -0.5 | 3
Cc1ccc(S(=O)(=O)Nc2nc(-c3ccccc3)cs2)cc1 | 1.0% | -13 | 1 | -2.3 | -0.4 | -19
Cc1ccc(-n2c(=O)[nH]cc(C(=O)N3CCc4ccccc43)c2=O)cc1C | 0.1% | 3 | 3 | -1.4 | 0.3 | -12
